# AmpC inh no det = AmpC beta-lactamase inhibition, detergent-free assay. P00811. AmpC nitrocefin hydrolysis, absorbance 480 nm, no detergent; potencies from a single point are estimates. Potency, µM (highest dose often 28.7 µM), inactives show at the highest dose activity change, negative = inhibition. 1.8% of 71,000 active. AID 585; active = falling curve, for most hits resting on a single point; inconclusive = weak or doubtful change; inactive = flat or rising curve; also: % of control where 0% means no effect; about half of the hits show no inhibition at the top dose; a quarter of the inactives give rising signals
# Target sequence (P00811 whole entry, looked up): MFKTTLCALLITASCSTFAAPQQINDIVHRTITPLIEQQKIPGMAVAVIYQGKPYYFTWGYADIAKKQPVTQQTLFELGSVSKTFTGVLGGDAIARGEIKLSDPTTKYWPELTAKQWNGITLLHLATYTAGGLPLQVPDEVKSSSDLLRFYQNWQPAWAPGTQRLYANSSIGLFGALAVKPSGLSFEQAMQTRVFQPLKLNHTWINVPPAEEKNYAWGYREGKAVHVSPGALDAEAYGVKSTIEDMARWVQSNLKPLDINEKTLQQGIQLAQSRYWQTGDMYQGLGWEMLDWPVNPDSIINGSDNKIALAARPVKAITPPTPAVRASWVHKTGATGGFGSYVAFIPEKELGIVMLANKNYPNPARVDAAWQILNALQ
#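 AmpC in 20 mM phosphate buffer pH 7.0 was preincubated 15 min at room temperature with compounds. Nitrocefin (800 uM stock) was then added and hydrolysis followed at 480 nm every 20 s for 4 min.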
# * hit, by the source's call; ? = inconclusive; & = joins results of further samples; [ ] = remark or other dose. Potency is read from the fitted curve at half-maximal effect.
# Start of the listing, in advance, six compounds:
SMILES,AmpC inh no det
COc1ccc(NC(=O)N2CCC3(CC2)CCN(S(C)(=O)=O)CC3)cc1,1%
CCCC(C)C(=O)Nc1ccc(C(N)=O)cc1 (centres undefined),0%
Cc1ccccc1SCC(=O)NC1CCOC1=O (centres undefined),-6%
O=C(NCCC1=CCCCC1)C1CCN(S(=O)(=O)c2cnc[nH]2)CC1,8%
O=C(NC1CC1)c1c[nH]c2ccc(S(=O)(=O)Nc3cccc(C(F)(F)F)c3)cc2c1=O,-13%
CCc1nnc(NC(=O)C2CCN(c3nc(C)cc(C)n3)CC2)s1,12%

# Results, repeating the preview:
SMILES,AmpC inh no det
COc1ccc(NC(=O)N2CCC3(CC2)CCN(S(C)(=O)=O)CC3)cc1,1%
CCCC(C)C(=O)Nc1ccc(C(N)=O)cc1 (centres undefined),0%
Cc1ccccc1SCC(=O)NC1CCOC1=O (centres undefined),-6%
O=C(NCCC1=CCCCC1)C1CCN(S(=O)(=O)c2cnc[nH]2)CC1,8%
O=C(NC1CC1)c1c[nH]c2ccc(S(=O)(=O)Nc3cccc(C(F)(F)F)c3)cc2c1=O,-13%
CCc1nnc(NC(=O)C2CCN(c3nc(C)cc(C)n3)CC2)s1,12%
COc1ccc(N2CC(O)=C(c3nc4ccccc4s3)C2=N)cc1,-2%
COc1ccccc1NC(=O)N1CCN(c2ccccc2F)CC1,10%
C=CCn1c(O)c(C(=O)CCCCCC)c(=O)[nH]c1=O,-12%
O=C(CCSCCC(=O)NCc1ccco1)NCc1ccco1,-7%
Cc1c(N)c(=O)n(-c2ccccc2)n1C,3%[12.8 µM]
Cc1cc(C)c(C)c(OCC(=O)NCc2nc(-c3ccccc3)no2)c1,16%
O=C1CC(N2CCC(n3c(=O)[nH]c4ccccc43)CC2)C(=O)N1c1ccc(F)cc1 (centres undefined),48%
Cn1cnnc1SCC(=O)NC(=O)NC1CCCC1,-17%
O=C(NCCCN1CCCC1=O)c1ccc2c(c1)ncn2C1CCCCC1,100%
Cc1cccc(N2C(N)=C(C#N)C(C#N)(C#N)C2c2ccccc2)c1 (centres undefined),16%
Cc1ccc2[nH]c(=O)c(CN(CC3CCCO3)C(=O)c3ccco3)cc2c1 (centres undefined),10%
Nc1nnc(SCc2cc3c(cc2Cl)OCO3)s1,-7%
O=C(CSc1nnc(NC(=O)C2CCC2)s1)Nc1ccc(N2CCOCC2)cc1,-6%
O=C(NCc1ccccn1)c1cnc2sccn2c1=O,-10%
CC(NC(=O)c1ccc(NS(C)(=O)=O)cc1)c1ccccc1 (centres undefined),-2%
c1cnn(-c2nc(N3CCOCC3)nc(N3CCOCC3)n2)c1,-8%
CCOc1ccc2[nH]c(=O)c(CN(CC3COCCO3)C(=O)c3ccco3)cc2c1 (centres undefined),22%
Clc1ccc(C=Nc2ccc3c(c2)Cc2ccccc2-3)c(Cl)c1,-8%[5.75 µM]
C/C(=C\C(=O)c1ccc(Br)cc1)N1CCCCC1,0%
SMILES,AmpC inh no det
O=C(NC1CCCCC1)N1CCC(n2cnc3ccccc32)CC1,-2%
CC(C)(C)N1C(=O)Cc2c1nc(N)c1c(N)nc(N3CCCCC3CO)c(C#N)c21 (centres undefined),90%
Cc1nc(N2CCOCC2)c2nc(-c3ccccc3)n(CC(C)(C)CN(C)C)c2n1,31%
O=C1c2ccccc2S(=O)(=O)N1Cc1nnc(-c2ccccc2Br)o1,-13%
COc1ccccc1N1CCN(c2cc(=O)n(-c3ccc(Br)cc3)c(=O)[nH]2)CC1,16µM*[single pt active]
CN(C)C(=O)c1nc(C#N)c(N(C)C)o1,-2%
CS(=O)(=O)N(CC(=O)N1CCOCC1)Cc1ccccc1,-7%
O=C1CC(C(=O)N2CCN(c3ccc(F)cc3)CC2)CN1CCc1ccccc1 (centres undefined),105%
COc1ccc(C(=O)NCCSCc2ccco2)cc1OC,-1%
CC(=O)c1ccc(OCCCC(=O)N2CCN(S(=O)(=O)c3cccs3)CC2)cc1,53%
Cc1csc(SCC(=O)Nc2nc3ccccc3s2)n1,-12%
Cn1cccc1C(=O)N1CCC2(CCCN(c3cccc(-c4ccccc4)c3)C2)CC1,60%
CS(=O)(=O)N1CCC2(CC1)CN(c1ccccc1)C2,114%
Cc1ccc(NC(=O)c2ccco2)c(NC(=O)c2cccs2)c1,-10%
COc1ccc(CN2CC(C(=O)NCCC3=CCCCC3)CC2=O)cc1 (centres undefined),62%
CC(=O)Nc1ccc(Nc2nc(C)nc3c2oc2ccccc23)cc1,9%
COC(=O)c1cc(-c2c(C)nn(-c3ccccc3)c2C)n[nH]1,6%
C1CC2OC2CC1C1CO1 (centres undefined),-7%
O=C1CC(N2CCN(Cc3ccc4c(c3)OCO4)CC2)C(=O)N1c1ccccc1 (centres undefined),15%
CCOC(=O)c1csc(NC(=O)c2ccc(S(=O)(=O)N(C)C)cc2)n1,30%
CCCSc1nc2c(c(=O)[nH]c(=O)n2C)n1Cc1ccc(C)cc1,-10%
CCOc1ccc(C2N(c3ccc(Cl)cc3)C(=O)C3CCCN32)cc1OC (centres undefined),72%
Cc1ccc(C(=O)CC2(O)C(=O)N(CN3CCOCC3)c3ccccc32)cc1 (centres undefined),17%
C=CCc1cccc2cc(C(=O)NC(C)(C)C)c(=O)oc12,18%
CCCCS(=O)(=O)NC1=NCN(CCOC(=O)c2ccccc2)CN1,2%
SMILES,AmpC inh no det
CC(C)NC(=O)CSc1nc2ccccc2c(=O)n1CCCOC(C)C,38%
COc1ccc(CCc2nc(-c3ccc(-n4cccc4)cc3)no2)cc1,8%
N[C@H]1C[C@H]1c1ccccc1,3%[12.8 µM]
CC(C)N(Cc1cc2ccccc2[nH]c1=O)C(=O)C(C)(C)C,9%
CCCn1c(N2CCN(CC(=O)c3c[nH]c4ccccc34)CC2)nc2c1c(=O)[nH]c(=O)n2C,82%
COc1ccc(CCNC(=O)CSc2nnc(CNC(=O)c3ccccc3F)o2)cc1OC,16%
O=C(c1cc2c(s1)-c1ccccc1OC2)N1CCCC1,89%
COc1ccc(Cl)cc1-c1nc(-c2ccc(NC(=O)c3ccncc3)cc2)no1,57%
COc1ccc(N2CCN(CCCN)CC2)cc1,13%
COc1ccc(C(=O)N2CCC3(CCCN(Cc4ccncc4)C3)CC2)cc1,46%
COc1ccc(Nc2ncnc3c2oc2ccccc23)cc1,12%
O=C(c1ccc(CS(=O)(=O)c2c(Cl)cccc2Cl)o1)N1CCN(c2ccccn2)CC1,70%
COc1ccc(N(C)S(=O)(=O)c2c(C)[nH]c(=O)[nH]c2=O)cc1,-10%
O=C(OCc1c(F)cccc1Cl)c1cnccn1,11%
COc1ccc2c(C)c(Cl)c(=O)oc2c1,-9%
Cc1cc(NC(=O)c2cccc(S(=O)(=O)N3CC(c4ccccc4)CC3=O)c2)no1 (centres undefined),-10%
Cn1c(Cn2c(=O)sc3ccccc32)nnc1SCC(=O)NCc1ccccc1,-4%
O=C(NCC1CCCO1)C1CCCN1C(=O)NC1CCCCC1 (centres undefined),7%
O=C(Nc1ccc([As](=O)(O)O)cc1)Nc1cccc(Cl)c1Cl,0%[5.75 µM]
C/C(=C\C(=O)c1ccc(F)cc1)Nc1ccc(N2CCOCC2)cc1,38%
Brc1c(CSc2nnc(-c3ccco3)o2)nc2ccccn12,6%
COc1ccc(-c2nc3cnc(N4CCNCC4)nc3n(Cc3cccc(OC)c3)c2=O)cc1,106%
CCOC(=O)C1CCCN(C(=O)Cc2c(F)cccc2Cl)C1 (centres undefined),1%
COc1cccc(-n2ccnc2SCC(=O)Nc2ccccc2)c1,-1%
CN(C)CCCn1c(N)c(C#N)c2nc(C#N)c(C#N)nc21,-2%

# Ordered by number of heavy atoms (low to high): seven of the compounds above
SMILES,AmpC inh no det
COc1ccc(N2CCN(CCCN)CC2)cc1,13%
COc1ccc(Nc2ncnc3c2oc2ccccc23)cc1,12%
O=C(NCC1CCCO1)C1CCCN1C(=O)NC1CCCCC1 (centres undefined),7%
COc1cccc(-n2ccnc2SCC(=O)Nc2ccccc2)c1,-1%
CC(C)NC(=O)CSc1nc2ccccc2c(=O)n1CCCOC(C)C,38%
O=C(c1ccc(CS(=O)(=O)c2c(Cl)cccc2Cl)o1)N1CCN(c2ccccn2)CC1,70%
CCCn1c(N2CCN(CC(=O)c3c[nH]c4ccccc34)CC2)nc2c1c(=O)[nH]c(=O)n2C,82%

# (cont.)
SMILES,AmpC inh no det
CC(=O)c1c(C)[nH]c(C(=O)OCCCCN2C(=O)c3ccccc3C2=O)c1C,36%
CCc1ccc(C2CC(c3cccc(Cl)c3)n3nc(N)nc3N2)cc1 (centres undefined),43%
Nc1cc([N+](=O)[O-])ccc1C(=O)O,-16%
O=C1[C@@H]2[C@H](Cc3ccc(O)cc3)N[C@]3(C(=O)Nc4ccccc43)[C@@H]2C(=O)N1c1ccc(F)cc1,2%
O=C(c1ccccc1)C(O)c1ccccc1 (centres undefined),0%
Cc1cccc2cc(CN(Cc3cccs3)C3(c4nnnn4C4CCCC4)CCCC3)c(=O)[nH]c12,35%
CN(CC(=O)N1CCN(c2ccccc2)CC1)S(=O)(=O)c1cnc[nH]1,-4%
CCOC(=O)Cc1csc(NC(=O)c2csc(C)c2)n1,-3%
O=P(O)(CCc1ccccc1)CN1CCCCC1,5%
COc1ccc(-c2nnc(SCc3csc(N)n3)n2C)cc1,13%
COc1cccc(N(CC(=O)N2CCN(C)CC2)S(=O)(=O)c2ccc(C)cc2)c1,58%
O=C(Cn1c(NCCO)nc2ccccc21)c1ccc(Cl)cc1,31%
COc1cccc(C(=O)N(Cc2nc(-c3cccc(C)c3)no2)C(C)C)c1OC,91%
CC[C@]1(OC(=O)CN)C(=O)OCc2c1cc1n(c2=O)Cc2cc3ccccc3nc2-1,14%[5.75 µM]
NP(N)(=O)NC(=O)c1ccc(F)cc1,-7%
CN1CCN(C(=O)COc2ccc(-c3nc4ccccc4s3)cc2)CC1,125%
C=CCNC(=O)c1nn2cccnc2c1Cl,2%
CCOC(=O)N1CCN(Cc2nc(-c3ccccc3)no2)CC1,39%
Cc1cc(N2CCN(C(c3ccccc3)c3ccc(Cl)cc3)CC2)n2ncnc2n1 (centres undefined),152%
O=C(CSc1nnc(-c2ccc(Br)cc2)o1)N1CCN(C(=O)c2ccco2)CC1,89%
COc1ccc(CCNC(=O)CN2C(=O)C3(OCCCO3)c3ccccc32)cc1OC,30%
CCCCN(C)CCNC(=O)c1ccc2c(c1)NC(=O)C(N1CCCCC1)S2 (centres undefined),19%
CCCCOCC1CN(c2ccccc2)C(=O)CS1 (centres undefined),-13%
CCOc1ccccc1N1CCN(S(=O)(=O)c2ccc(Cl)s2)CC1,1%
COc1ccc(NC(=O)C2CC(=O)N(C(C)C)C2)cc1 (centres undefined),-4%
SMILES,AmpC inh no det
CC(=O)Oc1ccc(N2C(=O)C3C(C2=O)C2(C)C=CC3(C)O2)cc1 (centres undefined),-7%
N#CCCn1c(=O)c(-c2ccc(Cl)cc2)nc2cnc(N3CCOCC3)nc21,3%
CC1=C(C(=O)Nc2ccccc2C)C(c2cccnc2)n2nc(CCCO)nc2N1 (centres undefined),2%
O=C(CN1CCN(Cc2ccc(F)cc2Cl)C1=O)NCCCN1CCOCC1,32%
O=c1oc2c(CN3CCOCC3)c(O)ccc2c2c1CCC2,-1%
CCN(CC)c1ccc(NC(=O)Cn2nnc(-c3cccc(OC)c3OC)n2)c(C)c1,21%
CNC(=O)c1ccccc1NC(=O)c1ccc(C)c(S(=O)(=O)N2CCCCC2)c1,30%
CC(C)CNC1=CC(=O)CC(c2ccco2)C1 (centres undefined),-8%
Cn1c(C(=O)NCCN2CCN(Cc3ccccc3)CC2)cc2c(=O)n(C)c3ccccc3c21,?
COc1ccc2[nH]cc(CCNc3cc(-c4c(C)noc4C)ncn3)c2c1,8%
CCCn1c(=O)c2[nH]c(C3CCCC3)nc2n(CCCOC(=O)c2ccc(S(=O)(=O)F)cc2)c1=O,4%
COC(=O)C1=C(N)Oc2cc(C)n(Cc3cccnc3)c(=O)c2C1c1ccccc1OC (centres undefined),15%
O=C(NCC1CCCO1)C1c2ccccc2C(=O)N1Cc1ccc2c(c1)OCO2 (centres undefined),-16%
Cn1c(C(=O)NC2CCCC2)cc2c(=O)n(C)c3ccccc3c21,53%
CN1C(=O)N(C)C(=O)C(CCc2ccncc2)(Cc2ccc3c(c2)OCO3)C1=O,60%
COc1ccc(CC(=O)Nc2cccc(-c3nnc(-c4ccccc4)o3)c2)cc1OC,62%
O=C1CC(N(Cc2ccco2)C(=O)Nc2ccc(F)cc2)C(=O)N1c1ccc(F)cc1 (centres undefined),7%
CC(=O)c1c(C(C)=O)c(C)n(CCCCn2c(C)c(C(C)=O)c(C(C)=O)c2C)c1C,14%
O=C(CSc1nnc2ccccn12)c1ccc(OC(F)F)cc1OC(F)F,-1%
O=C(CSc1nc2ccccc2c(=O)n1CC1CCCO1)N1CCN(c2ccccc2)CC1 (centres undefined),98%
Cc1nc2cc(C(=O)O)ccc2n1-c1ccccc1,16%
Cc1cc(NC(=O)c2ccc(S(=O)(=O)N(C)C)cc2)no1,-8%
Cc1nc2nc(SCC(=O)N3CCOCC3)nn2c(C)c1Cc1ccccc1,67%
CN1[C@@H](C[C@@H](O)c2ccccc2)CCC[C@@H]1C[C@H](O)c1ccccc1,-11%[12.8 µM]
Nn1c(COc2ccccc2)nc2ccccc2c1=O,14%
CCCn1nnc(NC(=O)Cc2ccc(Cl)cc2)n1,-10%
N=C(N)SCc1ccc(Cl)c2ccccc12 (tested in a mixture with another compound),-10%&-2%[5.75 µM]
COc1ccc(N(Cc2cc(=O)[nH]c3ccccc23)C(=O)c2ccco2)cc1,21%
COc1cc2c(cc1OC)C(c1ccco1)CC(=O)N2 (centres undefined),4%

# A portion of the library; the hit share may differ from the screen's.
